TAR Tat displ = TAR RNA-Tat peptide displacers, HIV-1, primary screen, biochemical, FRET, FAM/TAMRA-labeled Tat | HIV-1 TAR RNA, Tat peptide displacement FRET; stronger effect = higher value | z-score (no concentration beside the values) | 100,000 compounds, 0.6% hits | AID 1259389, 2018;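 further: score is relative to mean and SD of negative controls; some compounds called inactive have numbers as strong as hits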
CDC25B-CDK2 inh = primary biochemical HTRF screen for blockers of M-phase inducer phosphatase 2 binding to CDK2/cyclin A; P30305+P24941; HTRF CDC25B-CDK2/CyclinA binding, anti-His/anti-Flag; stronger effect = higher value; z-score (concentration not given with the values); 94,000 compounds, 0.72% hits; AID 1259370, 2018;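 further: score is relative to mean and SD of negative controls; strong numbers were not always called active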
Active calls of the source: *; x = no result given.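 How the source made its calls: active means z-score from 3 up in half or more of its runs; inactive means the rest.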

The opening 2 entries, to show the layout:
cpd	Molecule	TAR Tat displ	CDC25B-CDK2 inh
1	Cc1cc(C)c(NC(=O)C(C)Sc2cc(C)ncn2)c(C)c1 (centres undefined)	0.71	-1.3
2	COc1ccc(CCNC(C#N)c2ccco2)cc1OC (centres undefined)	x	-0.29

The whole of this part (from the top)
cpd	Molecule	TAR Tat displ	CDC25B-CDK2 inh
1	Cc1cc(C)c(NC(=O)C(C)Sc2cc(C)ncn2)c(C)c1 (centres undefined)	0.71	-1.3
2	COc1ccc(CCNC(C#N)c2ccco2)cc1OC (centres undefined)	x	-0.29
3	Clc1ccc(N2CCOCC2)nn1	-1.3	0.23
4	CCOC(=O)N1CCN(C(=O)C2CCN(c3nn4c(=O)cc(C)nc4s3)CC2)CC1	-0.79	-0.48
5	Cc1cc(C(=O)CN2CCOCC2)c(C)n1-c1ccc(F)cc1	1.9	x
6	CC(C)NS(=O)(=O)c1ccc2c(c1)NC(=O)CCS2	-0.22	x
7	COc1ccc(C2Nn3c(C)nnc3SC2C(=O)N2CCCC2)cc1 (centres undefined)	0.79	-0.9
8	CC(=O)NC1C(=O)N(C)c2c(C)cc(C)cc21 (centres undefined)	0.56	-1.1
9	CCCN(CCC)CCCNC(=O)c1cc2c(s1)-c1ccccc1S(=O)(=O)C2	2.5	-1.1
10	O=c1oc(Cl)c(Cl)c2ccccc12	-0.33	-1.4
11	CC(=O)N1c2ccccc2CC1C(=O)Nc1ccc(F)cc1F (centres undefined)	1.3	x
12	CC(C)CCNC(=O)CCc1nnc2ccc(N3CCN(C)CC3)nn12	-0.02	x
13	CCOC(=O)C(CC)Sc1nnc(CSc2nc(C)cc(C)n2)n1-c1ccccc1 (centres undefined)	1.3	-0.73
14	CCOc1ccc(C2C(C(=O)OC)=C(C)NC3=C2C(=O)CC(c2ccc(OC)c(OC)c2)C3)cc1 (centres undefined)	1.2	-1.4
15	Cc1oc(C(C)(C)C)cc1C(=O)NCCSCc1c(F)cccc1Cl	x	-2.2
16	O=C(NCCc1cccs1)c1cc2c(Cl)ccc3c2n1CCO3	-0.43	x
17	O=C1Nc2cc(C(=O)N3CCCCC3)ccc2N2CCCCC12 (centres undefined)	-0.08	x
18	CCN(CC)S(=O)(=O)c1ccc2nc(NC(=O)c3ccco3)sc2c1	-0.67	x
19	CC1CCC(NC(=O)C2(C)Cn3c(cc4occc43)C(=O)N2CCN2CCCC2)CC1 (centres undefined)	1.2	x
20	C=CCn1c(-c2nonc2NC(=O)CC)nc2ccccc21	-0.58	-0.71
21	COc1cnc(CSc2ccccc2)cc1OCC(=O)NC1CCCC1	1.4	x
22	CCCS(=O)(=O)N1CCCC1c1cc(C)no1 (centres undefined)	3.4	x
23	CCC(O)c1nc2ccccc2n1CCCCOc1cccc(OC)c1 (centres undefined)	0.77	-1.2
24	CN(Cc1ccccc1)C(=O)c1ccc(-n2ccc3ccccc32)s1	-0.52	x
25	O=C1CC(c2cccc(OCc3ccccc3)c2)c2cc3c(cc2N1)OCCO3 (centres undefined)	x	0.13
26	CCn1c(=O)c2c(n3c(SCC(N)=O)nnc13)-c1ccccc1CC21CCCCC1	0.77	0.67
27	CC(C)(C)c1cc(C(F)(F)F)nc(SCCCNC(=O)Cc2cccs2)n1	-0.13	0.16
28	CC1(C(=O)NC2CCCC2)Cn2c(ccc2-c2ccco2)C(=O)N1c1ccc(F)cc1 (centres undefined)	1.1	x
29	CC(=O)N1CCc2cc(S(=O)(=O)NC(C(=O)NCC3COc4ccccc4O3)C(C)C)ccc21 (centres undefined)	1.6	-1.6
30	COc1ccc(NC(=O)CSc2nnc3c4c5c(sc4ncn23)CCCC5)cc1	0.02	-1.9
31	CCOc1ccccc1C1Nc2ccccc2S(=O)(=O)N1Cc1ccccc1 (centres undefined)	x	0.21
32	Cc1ccc(-c2nc3nc(C)cc(C)n3n2)cc1	-0.56	1.4
33	CC1CCC2(CC1)Nc1ccccc1CO2 (centres undefined)	x	-1.5
34	CC(C)NC(=O)CCc1nc(-c2ccc(C(C)(C)C)cc2)no1	-0.43	-1.9
35	Cn1c(CN2CCCC2)nc2cc(NC(=O)C3CCCCC3)ccc21	0.73	-1.3
36	Cc1cc(SCC(=O)Nc2ccc(Br)cc2)ncn1	0.86	-1.1
37	CCc1cc2c3c([nH]c2cc1S(=O)(=O)NC(C)CC)CC(C)(C)CC3=O (centres undefined)	0.64	x
38	O=c1ccc(-c2ccc(S(=O)(=O)N3CCN(C4CCCCC4)CC3)s2)n[nH]1	1.1	x
39	C=CCSC1=C(C#N)C(c2ccncc2)C(C(=O)OCC)=C(c2ccccc2)N1 (centres undefined)	0.27	-0.51
40	Clc1cccc(Cc2cn3cc(-c4ccccc4)nc3s2)c1	x	-0.95
41	Cc1ccc(-n2cccc2)cc1	x	-0.59
42	O=C(Cn1ncc2c([nH]c3ccccc32)c1=O)N(Cc1ccccc1)Cc1cccs1	0.29	-1.1
43	O=C(O)c1ccccc1Sc1c([N+](=O)[O-])cc(C(F)(F)F)cc1[N+](=O)[O-]	x	-1.8
44	COc1cc(Cl)c(C2C(C#N)=C(N)Oc3cc4c(cc32)OCO4)cc1OC (centres undefined)	x	-2.6
45	O=C(NCc1ccc(Cl)cc1)c1cc2c(s1)CSC2	-0.21	-0.53
46	CN(C)c1ccc(C2N(C(=O)N3CCOCC3)CCN2S(=O)(=O)c2ccccc2)cc1 (centres undefined)	0.37	-2.3
47	Cc1cccc(NC(c2cccnc2)c2ccc3cccnc3c2O)c1 (centres undefined)	-1.1	-2.2
48	O=C(NCCN1CCN(c2cccc(Cl)c2)CC1)Nc1ccc(Br)cc1	1.2	0.16
49	COc1ccc(NC(=O)NC(C)c2c(-n3cccc3)sc3c2CCCC3)cc1 (centres undefined)	-0.24	1.5
50	CC1CC(C)CN(CCNC(=O)C2CCN(c3ncnc4c3nc3n4CCCCC3)CC2)C1 (centres undefined)	-0.75	x
51	CC(=O)Oc1cncc(C(=O)O)c1	0.64	-2.1
52	CC(C)c1ccc(S(=O)(=O)CC#N)cc1	x	-1.4
53	CC(=O)c1c(OC(=O)c2ccc(Cl)cc2)ccc2c(C)cc(=O)oc12	x	-0.34
54	COc1cccc(-c2nc(C(N)=O)c3[nH]c(=O)n(C4CCCCC4)c3n2)c1	-1.7	x
55	COc1ccccc1-n1c(C)c(C)c2c1ncn1nc(-c3ccc(N(C)C)cc3)nc21	0.46	-2.2
56	COc1ccc(CNc2ncnc3c2nnn3C)cc1	3.5	x
57	COc1ccc(N2C(=O)N(c3ccccc3Cl)C3CS(=O)(=O)CC32)cc1 (centres undefined)	1.3	1.8
58	O=C(Nc1ccc2c(c1)OCO2)N1CCCC1c1cccs1 (centres undefined)	1.8	-3.4
59	CC(=O)N1CCN(c2ccc(Nc3cc(C)nc4nc(-c5ccco5)nn34)cc2)CC1	0.5	-1.3
60	CC(C)(C)S(=O)(=O)Cc1nc(-c2ccc(C(F)(F)F)cc2)cs1	x	-1.9

Two entries from above, screen by screen:
[3] Clc1ccc(N2CCOCC2)nn1
[4] CCOC(=O)N1CCN(C(=O)C2CCN(c3nn4c(=O)cc(C)nc4s3)CC2)CC1

| entry no. | 3 | 4 |
| --- | --- | --- |
| TAR Tat displ | -1.3 | -0.79 |
| CDC25B-CDK2 inh | 0.23 | -0.48 |

(listing goes on)
cpd	Molecule	TAR Tat displ	CDC25B-CDK2 inh
61	O=C(C1CCCN1c1nnc(N2CCCC2=O)s1)N1CCN(C2CCCCC2)CC1 (centres undefined)	2.6	-0.91
62	COc1cc2c(cc1OC)C(C)N(C(=O)c1noc3c1CSc1ccccc1-3)CC2 (centres undefined)	0.89	-1.3
63	O=C(Cn1cnc2c(nnn2-c2ccc(F)cc2)c1=O)NCC1CCCO1 (centres undefined)	x	-1
64	Cc1ccc(C)c(CN2CCCN(Cc3cc(C)ccc3C)S2(=O)=O)c1	1.1	x
65	COc1ccc(Nc2nc(N3CCCC3)nc3c2cnn3C)cc1Cl	1.9	x
66	O=C(NC(=O)C1CCNCC1)c1cc2c(s1)CS(=O)(=O)C2	x	-3.7
67	O=C1CC(c2ccccc2)CC2=C1C(c1ccc(O)cc1)Nc1ccccc1N2 (centres undefined)	-0.05	-4.3
68	NCCn1c(-c2ccc(F)cc2)nc2cccnc21	-0.01	x
69	COC(=O)c1noc(C(=O)c2ccccc2)c1N	-0.14	-3
70	O=C(CSc1ncn(-c2ccccc2)n1)Nc1nc2c(s1)CCCC2	x	0.14
71	COC(=O)c1cc(NS(=O)(=O)c2c(C)nc3scc(C)n3c2=O)cc(C(=O)OC)c1	0.09	-1.1
72	CC(C)(C)Nc1c(-c2ccc(F)cc2)nc2sc(N3CCN(Cc4ccncc4)CC3)nn12	1.9	x

Compound profiles, as listed above.
CC(C)(C)Nc1c(-c2ccc(F)cc2)nc2sc(N3CCN(Cc4ccncc4)CC3)nn12 is entered as TAR Tat displ: 1.9; CDC25B-CDK2 inh: x
O=C(C1CCCN1c1nnc(N2CCCC2=O)s1)N1CCN(C2CCCCC2)CC1 (centres undefined) is entered as TAR Tat displ: 2.6; CDC25B-CDK2 inh: -0.91
COC(=O)c1cc(NS(=O)(=O)c2c(C)nc3scc(C)n3c2=O)cc(C(=O)OC)c1 is entered as TAR Tat displ: 0.09; CDC25B-CDK2 inh: -1.1

New compounds follow:
cpd	Molecule	TAR Tat displ	CDC25B-CDK2 inh
73	COC(=O)c1nnn(-c2ccc(Br)cc2)c1C(=O)OC	-0.5	-2.8
74	O=C(CSc1nnc2c(=O)n(-c3cccc(F)c3)ccn12)c1ccc(F)cc1	0	x
75	COc1ccc(N2C(=O)CC(Sc3nc4ccccc4s3)C2=O)cc1 (centres undefined)	0.4	-1.6
76	O=S(=O)(c1cccs1)N1CCN(CCc2ccccc2)CC1	x	-1.5
77	Cc1ccc(CNS(=O)(=O)c2ccc(-c3ccc(=O)[nH]n3)o2)cc1	2.9	x
78	CCOC(=O)c1sc2ncnc(Oc3cccc(OC)c3)c2c1C	1.4	x
79	OCCSc1nnc(COc2ccc(Cl)cc2)n1-c1ccccc1	0.46	1.6
80	O=C(NC1CCCC1)C1CCN(C(=O)c2ccc(-n3ccc4ccccc43)s2)CC1	-0.37	x
81	COCCNC(=O)c1oc2ccc3c(c2c1C)C(=O)CC1(CCCCC1)O3	0.24	-0.15
82	Cc1ccc(SC(=O)N/C=C/c2ccsc2)cc1	x	-1.6
83	Cc1c(C(=O)NC2CCCCC2)sc2nc3n(c(=O)c12)CCCC3	1.4	x
84	Cc1nc(-c2csc(S(=O)(=O)Nc3ccc(C)c(C)c3)c2)no1	0.51	x
85	Nc1ccc(C(=O)OCCCc2nc3ccc(N)cc3[nH]2)cc1	1.7	-6.1
86	CCCCNc1nc(Nc2ccc(C)cc2)c2cnn(C)c2n1	0.18	x
87	CCCNc1nc(N2CCC(N3CCCCC3)CC2)nc2c1cnn2C	1.1	x
88	C=CCNC(=O)c1cccn2c(-c3ccc(F)cc3)nnc12	0.25	x
89	CCOc1ccc(-c2n[nH]c(C)c2Oc2ccc(F)cc2)c(O)c1	0.32	0.19
90	CC1CCC(NS(=O)(=O)c2cc(F)ccc2CN2C(=O)c3cccnc3C2=O)CC1 (centres undefined)	0.39	x
91	O=C(/C=C/c1ccc(-c2cccc(Cl)c2Cl)o1)c1cccs1	x	-4.5
92	Cc1ccc(Nc2ncnc3c2cnn3C)cc1Cl	1.8	x
93	Cc1nnc2sc(-c3ccc(Cl)c(N)c3)nn12	0.58	-2.4
94	CC1(C)CC(NCCC(=O)NC2CC(C)(C)NC(C)(C)C2)CC(C)(C)N1	x	-0.58
95	Cc1cccnc1-n1c(C)c(C)c2c1ncn1nc(-c3ccco3)nc21	1	-1.4
96	CCCn1c2ccc(C)cc2c2nnc(SCCN3CCOCC3)nc21	-0.68	-1.5
97	c1ccc(-c2cc(-c3ccccc3)on2)cc1	x	-1.8
98	CC(=O)Nc1nc([N+](=O)[O-])n(-c2ccccc2)n1	-0.17	-2.2
99	CC(C)c1ccc(-n2nnc(-c3nc(-c4ccc5c(c4)OCO5)no3)c2N)cc1	0.82	x
100	O=S1(=O)C[C@H](NC2CCCCC2)[C@@H](S(=O)(=O)c2ccccc2)C1	-0.68	-1.4
101	COCCN1C(=O)c2oc3ccc(C)cc3c(=O)c2C1c1ccc(O)c(OC)c1 (centres undefined)	2	-2.1
102	Cc1nc2c3c(-c4ccccc4)c(-c4ccccc4)oc3ncn2n1	1.2	x
103	COc1ccc(C(=O)C2C(c3ccc(C(C)(C)C)cc3)NC(=O)NC2(O)C(F)(F)F)cc1 (centres undefined)	x	-0.05
104	O=C1CCCC2=C1C(c1ccc(Cl)cc1)C1C(=O)c3ccccc3C1=N2 (centres undefined)	-0.74	-4.9
105	CCCc1nc(SC)ncc1C(=O)Nc1ccc(Br)c(C)c1	1.8	x
106	CCCN1CCN(c2nc(Nc3ccc(Cl)cc3)c3cnn(C)c3n2)CC1	0.18	x
107	CCOC(=O)N1CCC2(CC1)OC(=O)C(C)=C2C(=O)NC1CCCCC1	1	x
108	O=C(O)c1cc2cc(Cc3cccnc3)ccc2o1	-1.8	-1.6
109	O=C(Nc1ccc2c(c1)OCO2)c1ccccn1	1.2	-0.26
110	O=C(CSc1nc2c(c(=O)[nH]1)CCC2)Nc1nc(-c2ccccc2)cs1	1.4	-1.3
111	Cc1noc2ncnc(N3CCCC3)c12	-2.5	x
112	CN(C(=O)NCc1noc2ccccc12)c1ccccc1	0.09	x
113	O=S(=O)(Nc1ccccc1)c1ccc2oc3ccc(S(=O)(=O)Nc4ccccc4)cc3c2c1	x	0.3
114	Cc1ccc(-c2nnc3sc(C4COc5ccccc5O4)nn23)cc1 (centres undefined)	2	-0.56
115	COC(=O)c1cc(=O)c2cc(C(F)(F)F)ccc2[nH]1	x	-1.1
116	O=C(Nc1ccc(F)c(Cl)c1)N1Cc2cccn2-c2ccccc21	0.03	x
117	COc1ccc(CCN2C(=O)c3[nH]nc(-c4ccccc4O)c3C2c2ccccc2)cc1 (centres undefined)	2.4	-3.2
118	CCCN1C(=O)C(NC(C)=O)c2cc(Br)ccc21 (centres undefined)	-1	-1.1
